RE007 growth inh: less growth of the S. pombe RE007 Vpr strain | S. pombe RE007 Vpr strain, BacTiter-Glo ATP luminescence, 24 h; control for the full effect not named in the record | Potency, µM (series often up to 92.2 µM), inactives show at the highest dose activity change, negative = less growth | actives 0.21% (n = 360,000); active = well fitted falling curve with a large enough effect; inconclusive = small, poorly fitted or top-dose-only effect; inactive = no such curve, though single readings can be large or run the other way;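 note: % is set by controls: 0 for no effect and ±100 for the full control effect; nearly all actives have a fitted effect of over 50% in size; the assay follows cell death caused by Vpr and the record does not say whether a fall means rescue or toxicity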
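Fission yeast strain RE007, carrying one chromosomally integrated HIV-1 vpr copy, was seeded at OD 0.01 in PMG+AL medium with 23 nL pinned compound. After 24 h at 30 °C and 99% humidity, viability was read by BacTiter-Glo luminescence.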
Cruzain inh noDet: cruzain (T. cruzi) inhibition without detergent. purified cruzain, Z-FR-AMC fluorescence, no detergent. Potency, µM, without a hit: max response, negative = inhibition, most hits filed as inhibitors. actives 2.3% (n = 200,000);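 note: plate controls were enzyme without inhibitor for no effect and buffer without enzyme for full effect; nearly all actives have a fitted effect of over 40% in size; top concentration of the series not given in the record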
Target sequence (P25779 123-467 limits assumed): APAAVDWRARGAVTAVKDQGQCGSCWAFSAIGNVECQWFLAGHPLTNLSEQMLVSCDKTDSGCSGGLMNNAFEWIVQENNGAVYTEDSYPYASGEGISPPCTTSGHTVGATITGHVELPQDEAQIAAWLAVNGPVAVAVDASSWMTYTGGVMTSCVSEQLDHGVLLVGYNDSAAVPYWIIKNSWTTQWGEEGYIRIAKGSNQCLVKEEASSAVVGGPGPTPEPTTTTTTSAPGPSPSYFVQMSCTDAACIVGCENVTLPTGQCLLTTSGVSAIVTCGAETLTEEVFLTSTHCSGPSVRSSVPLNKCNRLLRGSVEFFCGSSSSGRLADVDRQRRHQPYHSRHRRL
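Purified cruzain at 1.5 nM, pre-incubated 15 min with compound at room temperature in 100 mM sodium acetate pH 5.5, 5 mM DTT, 0.00005% Triton X-100. Reaction started with 2 uM Z-FR-AMC; AMC fluorescence increase over 60 s gives rate.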
MARV entry inh: inhibitors of Marburg virus binding or cell entry. Potency, µM (titrated, usually from 37.8 µM), for the others: at the highest dose activity change, negative = inhibition, usual class: inhibitors. Marburg virus pseudotyped entry inhibition, cell reporter; control for the full effect not named in the record; about a third of the inactives were read at about 46 µM. AID 540276. actives 1.8% (n = 300,000); active = well fitted inhibition curve with a large enough effect; inconclusive = small, poorly fitted or top-dose-only effect, or effect the other way; inactive = flat fitted curve, though single readings scatter; tested in HEK293 cells; about a fifth of its hits are not listed in these tables; note: % is set by controls: 0 for no effect and ±100 for the full control effect; luciferase read-out
SARS PLpro yeast: inhibitors of SARS-CoV papain-like protease in yeast | S. cerevisiae expressing SARS-CoV PLpro, growth rescue; control for the full effect not named in the record | Potency, µM (highest dose often 32.9 µM), without a hit: top-dose activity, positive = growth rescue | actives 0.19% (n = 330,000) | AID 485353; active means well fitted rising curve with a large enough effect; inconclusive means small, poorly fitted or top-dose-only effect; inactive means no such curve, though single readings can be large or run the other way; note: 0% is about no effect; nearly all actives have a fitted effect of over 55% in size; growth read by luminescence after 48 h
Cruzain Triton: cruzain (T. cruzi) inhibition with detergent; AID 1478; purified cruzain, Z-FR-AMC fluorescence, 0.01% Triton; actives 0.43% (n = 200,000); Potency, µM, inactives show max response, negative = inhibition, actives largely listed as inhibitors; P25779;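 note: plate controls were neutral wells for no effect and buffer without enzyme for full effect; nearly all actives have a fitted effect of over 40% in size; top concentration of the series not given in the record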
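Steps: dispense cruzain (1.5 nM final) in acetate buffer pH 5.5 with DTT and 0.01% Triton X-100; pin-transfer compounds; incubate 15 min RT; add Z-FR-AMC (2 uM final); read fluorescence every 30 s, using the 60 s intensity change.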
NS1 function inh: blocks influenza NS1 protein function. S. cerevisiae slowed by influenza A NS1, growth recovery by OD600. Potency, µM (highest dose often 46.1 µM), for the others: at the highest dose activity, positive = more growth. actives 0.4% (n = 270,000). AID 2326; active means well fitted rising curve with a large enough effect; inconclusive means small, poorly fitted or top-dose-only effect; inactive means no such curve, though single readings can be large or run the other way; note: nearly all actives have a fitted effect of over 50% in size
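A cell-based growth assay was used: compounds that relieve NS1-induced slow growth of budding yeast raise OD600. Assay medium was yeast nitrogen base with ammonium sulphate and -URA supplement, pH 6.0, with 2% galactose.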
LASV entry inh: Lassa virus entry inhibition; AID 540256; Lassa virus pseudotype entry inhibition, cell reporter; control for the full effect not named in the record; actives 1.2% (n = 300,000); Potency, µM (series often up to 37.9 µM), without a hit: at the highest dose activity change, negative = inhibition, most hits filed as inhibitors; active means well fitted inhibition curve with a large enough effect; inconclusive means small, poorly fitted or top-dose-only effect, or effect the other way; inactive means flat fitted curve, though single readings scatter; tested in HEK293 cells; note: % is set by controls: 0 for no effect and ±100 for the full control effect; nearly all actives have a fitted effect of over 50% in size; luciferase read-out
2A StopGo: lowers the luciferase signal of an FMDV 2A StopGo reporter; actives 1.2% (n = 410,000); Potency, µM (doses to about 57.9 µM), for the others: at the top dose signal change, negative = less light; human cells with a luciferase reporter of 2A StopGo recoding; control for the full effect not named in the record; active = well fitted falling curve with a large enough effect; inconclusive = small, poorly fitted or top-dose-only effect; inactive = no such curve, though single readings can be large or run the other way; tested in HEK293T cells; note: % is set by controls: 0 for no effect and ±100 for the full control effect; nearly all actives have a fitted effect of over 45% in size; luciferase light after 4 h
* marks the source's active call; other numbers are inactive results; ? = inconclusive; / = no result given; & = joins results of further samples; ! = a repeat was not active; [ ] = dose if it differs, or a comment. Unless noted, calls come from the whole dose curve; as a rule, active = well fitted curve in the direction sought with a large enough effect; inconclusive = small, poorly fitted or top-dose-only effect, or another doubt; inactive = no such curve, though single readings can be large; an effect the other way counts as inactive or inconclusive. Potency is the fitted concentration of half-maximal effect. Hits appear at their usual frequency, and some 4.6% of all compounds hit somewhere here.

SMILES | RE007 growth inh | Cruzain inh noDet | MARV entry inh | SARS PLpro yeast | Cruzain Triton | NS1 function inh | LASV entry inh | 2A StopGo
O=S(=O)(Nc1ccc(Cl)c(C(F)(F)F)c1)c1cnc[nH]1 | -9% | 6% | 5% | 2% | 0.4% | 3% | -1% | 32%[activator]
COc1ccc(CNC(=S)Nc2cccc(F)c2)cc1 | 2% | / | -3% | 21% | / | ? | 0% | 60%[activator]
Cc1cccc(N=Nc2cn[nH]c2-c2ccco2)c1 | -9% | / | 26%[46.1 µM] | -2% | / | / | 10% | 55%[activator]
O=S1(=O)CC(O)C(Nc2ccc(Cl)cc2)C1 (stereo not drawn) | 9% | -5% | -3% | 14% | 0.7% | -2% | 0% | 0%
O=C(c1ccco1)N1CCN(Cc2c(Cl)cccc2Cl)CC1 | 15% | / | / | 4% | / | -21% | / | 0%
COc1ccc(-n2cnnc2SCC(=O)Nc2cc(C)on2)cc1 | 3% | / | -13%[46.1 µM] | 1% | / | / | -13% | 5%
Nc1nc(SCC(=O)N2CCCC2)[nH]c(=O)c1NC(=O)c1cccs1 | 16% | / | / | 0% | / | 0% | / | -11%
O=C(Nc1cccc2ncccc12)c1cccnc1 | 30% | -14% | 20% | 2% | -4.0% | 4% | ? | 6%
COC(=O)c1c(NC(=O)/C(C#N)=C/c2ccc(OC)cc2)sc2c1C(C(=O)OC)CC2 (stereo not drawn) | / | 2% | / | / | -2.1% | / | 24%[46.1 µM] | -17%
COc1cc(NC(=O)COC(C)=O)cc(OC)c1OC | 4% | / | -3%[46.1 µM] | 0% | / | -4% | 1%[46.1 µM] | -9%
CCCn1ccc2c(OCC(=O)Nc3ccc(C(F)(F)F)cc3)cccc2c1=O | / | 9% | / | / | -6.3% | / | 6%[46.1 µM] | -19%
Cc1csc2ncc(C(=O)NCc3ccccn3)c(=O)n12 | -5% | -13% | / | 5% | -4.3% | -1% | / | -5%
CN1CCN(S(=O)(=O)c2ccc(NC(=S)NC(=O)c3ccccc3)cc2)CC1 | -8% | -4% | ? | -6% | -4.2% | -5% | 3% | 22%
C=CCOC(=O)C1=C[C@H](c2cn(C(C)=O)c3ccccc23)C[C@H](OCc2ccc(CO)cc2)O1 | -3% | / | / | -2% | / | 1% | / | -17%
CCOC(=O)c1sc(Nc2nc3cc4c(cc3s2)OCO4)cc1C | 1% | 25µM* | -10% | 8% | -6.9% | ? | -6% | -21%
Cc1cc(C)c(S(=O)(=O)N/N=C/c2ccc3c(c2)OCO3)c(C)c1 | -2% | / | -8%[46.1 µM] | -10% | / | -60% | 1%[46.1 µM] | 10%
C/C=C\C(=O)Nc1cccc(C2=NOC3(C2)C[C@@H](C(N)=O)N(C(=O)C2(C)CC2)C3)c1 (stereo partly drawn) | -1% | / | / | 1% | / | 5% | / | -17%
CCOC(=O)c1c(NC(=O)c2cc(-c3ccccc3OC)on2)sc(C)c1C | / | -3% | -2%[46.1 µM] | / | -1.6% | / | ? | 12%
Cc1ccc(-c2ccc(=O)n(CC(=O)Nc3ccc(C)cc3Cl)n2)cc1 | / | ? | 26%[46.1 µM] | / | -5.3% | / | 4%[46.1 µM] | -20%
CC(C)c1ccc(/C=N/Nc2ccc(C(=O)O)cc2)cc1 | -28% | -16% | 1.5µM* | 23% | -18% | 13% | 0.65µM* | 45µM*
O=C(CCc1nc2ccccc2[nH]1)NC1CCCCC1 | -17% | -1% | / | 3% | -3.6% | ? | / | -4%
C/C(CC(=O)NC1CCCCC1)=N\NC(=O)c1ccccc1C | -1% | / | ? | 0% | / | -37% | / | 10%
CCCn1nc(NC(=O)c2cccs2)c2cc3cc(OC)ccc3nc21 | -21% | 10% | -9% | -5% | 1.7% | -77% | ? | 24%
Cc1ccc2nsnc2c1NC(=O)CCc1ccccc1 | 3% | -10% | -4% | 16% | -3.8% | 6% | 6% | -7%
Cc1cnc(C(=O)OCC(=O)Nc2ccc3c(c2)OCCO3)cn1 | -6% | / | 12% | -3% | / | / | ? | 3%
Continuation.
SMILES | RE007 growth inh | Cruzain inh noDet | MARV entry inh | SARS PLpro yeast | Cruzain Triton | NS1 function inh | LASV entry inh | 2A StopGo
O=C1N(Cc2cccc(Cl)c2)C[C@@H]2C[C@@H](c3ccsc3)N3CCC[C@@]123 | -6% | / | -11%[46.1 µM] | 1% | / | 1% | 10% | -15%
CC(=O)NC(C1C(=O)CC(C)(C)CC1=O)(C(F)(F)F)C(F)(F)F | -20% | 3% | 12% | 1% | 5.8% | 6% | ? | -19%
CC(C)COc1ccc(C(=O)Nc2scc(-c3ccc(Br)cc3)c2C(=O)OC(C)C)cc1 | / | -5% | / | / | -1.1% | / | -12%[46.1 µM] | 8%
O=C(CCC(=O)Nc1ccc(Cl)cc1)N/N=C/c1ccc2c(c1)OCO2 | 2% | / | 8% | -8% | / | -27% | ? | 6%
Cc1[nH]nc(N2CCCCC2)c1[N+](=O)[O-] | -2% | 4% | 11% | / | 1.6% | -5% | 9% | -4%
COc1cc(/C=C(/NC(C)=O)C(=O)O)cc(Cl)c1OCc1ccc(Br)cc1 | 7% | / | ? | 1% | / | -1% | 0%[46.1 µM] | -8%
Cc1cc(C(=O)Nc2ccccc2Cc2ccccc2)no1 | -6% | / | / | -4% | / | -21% | / | -19%
Cn1c(C(=O)NCc2ccc(Cl)cc2)cc2c(=O)n(C)c3ccccc3c21 | / | -5% | 1%[46.1 µM] | / | 2.4% | / | 3%[46.1 µM] | -7%
O=C(Nc1ccccc1N1CCCCC1)C1CCN(S(=O)(=O)c2cccc(C(F)(F)F)c2)CC1 | 11% | / | -28% | -3% | / | / | -17%[46.1 µM] | -9%
O=C(NCc1cccs1)c1cnc(Cl)c(Cl)c1 | 14% | / | 18%[46.1 µM] | 1% | / | / | 7% | 44%[activator]
CCOc1ccc(S(=O)(=O)N2CCC(C(=O)NC3CC3)CC2)cc1Cl | 28% | / | -1% | 0% | / | -1% | -15% | -22%
COc1ccc(-c2noc(N3CCC(C(=O)Nc4ccc(C)c(F)c4)CC3)n2)cc1OC | / | 4% | ? | / | -0.8% | / | 0%[46.1 µM] | -19%
Cc1ccc(S(=O)(=O)N2CCN(C(=O)CCOc3ccccc3C)CC2)cc1C | -15% | / | ? | 2% | / | / | ? | -19%
CCOC(=O)Cn1c(=O)oc2cc(S(=O)(=O)N3CCN(c4ccccc4OC)CC3)ccc21 | / | 29% | 12%[46.1 µM] | / | -0.2% | / | 16%[46.1 µM] | -10%
O=C(c1ccccc1F)N(NC(=O)C(O)(c1ccccc1)c1ccccc1)c1ccccc1 | 29% | -9% | -12% | 19% | -2.9% | 11% | ? | -18%
CC(C)CN(C(=O)COC(=O)c1cccnc1Cl)c1c(N)n(Cc2ccccc2)c(=O)[nH]c1=O | -3% | / | -7% | 0% | / | / | -13% | -16%
Cc1csc(=O)n1CCC(=O)OCc1nnc(-c2ccccc2)o1 | -3% | / | ? | 2% | / | / | 13% | 37%[activator]
CCOC(=O)c1c(Nc2ccc(C)c(C)c2)nnc(-c2ccccc2)c1-c1ccccc1 | / | ? | -21%[46.1 µM] | / | -8.7% | / | -28%[46.1 µM] | -27%
COc1ccc(NC(=O)CSc2cn(CC(=O)N3CCOCC3)c3ccccc23)cc1OC | / | -2% | / | / | -3.6% | / | 10%[46.1 µM] | -17%
O=C(Nc1ccccc1F)c1ccc(COc2ccc(Cl)cc2Cl)o1 | -17% | -20% | -15%[46.1 µM] | 2% | -21% | -7% | ? | 14%
Cc1nc2nc(SCC(=O)NCc3ccco3)nn2c(C)c1Cc1ccccc1 | 8% | -4% | ? | 1%[6.58 µM] | -2.3% | 1% | ? | -26%
COc1ccc(NC(=O)CN2CCN(c3ccccc3F)CC2)c(OC)c1 | / | -9% | / | / | -1.1% | / | -19%[46.1 µM] | 7%
COc1cc(NC(=O)Cn2c(=O)oc3cc(S(=O)(=O)N4CCCCCC4)ccc32)cc(OC)c1 | / | -8% | / | / | -4.6% | / | -24%[46.1 µM] | -27%
COc1ccc(CN(C)CC(=O)Nc2ccccc2C(F)(F)F)cc1 | -1% | / | -28% | 5% | / | / | ? | -3%
CC(C)[C@H](NC(=O)c1ccccc1Cl)C(=O)OCc1cc([N+](=O)[O-])cc2c1OCOC2 | -5% | -27% | ? | 6% | -29% | -9% | 16% | -2%
More compounds:
SMILES | RE007 growth inh | Cruzain inh noDet | MARV entry inh | SARS PLpro yeast | Cruzain Triton | NS1 function inh | LASV entry inh | 2A StopGo
O=c1cc(NCc2ccccc2)[nH]c(=O)[nH]1 | 5% | / | 1% | / | / | / | -5% | -7%
COc1cc(C)c(Cl)cc1S(=O)(=O)NCCN1CCOCC1 | 8% | -25% | ? | 2% | 1.6% | -14% | -1% | 113%[activator]
Brc1ccc(-n2cccc2/C=N/n2cnnc2)cc1 | -2% | -5% | -19% | 1% | -4.5% | 0% | 3% | 0%
CCn1nc(C)c(/C=N/NC(=O)Cn2nccc2C)c1C | -5% | -3% | 15% | -3% | -1.7% | 2% | ? | 62%[activator]
Cc1cc(=O)oc2cc(OC(C)C(=O)NCCCN3CCCC3=O)c(Cl)cc12 (stereo not drawn) | -8% | / | 12%[46.1 µM] | -1% | / | -6% | 5%[46.1 µM] | 2%
CN(CCOCCOc1ccc2ccccc2c1)Cc1ccccc1 | -23% | 8% | 6%[46.1 µM] | -4% | -1.4% | -84% | 1% | -7%
Cc1csc(=O)n1CCC(=O)OCC(=O)Nc1cc(Cl)ccc1[N+](=O)[O-] | -11% | / | 4%[46.1 µM] | -4% | / | / | 29% | -15%
COc1cccc(NC(=O)C2C3C=CC4(O3)C2C(=O)N(C(C)C)C4C(=O)NC2CCCCC2C)c1 (stereo not drawn) | -5% | 3% | 8%[46.1 µM] | 6% | -0.3% | -5% | 9% | 4%
O=C1CN(C(=O)NCC(=O)N[C@@H](Cc2ccccc2)C(=O)O)c2ccccc2N1 | 10% | / | / | -17% | / | 18% | / | -7%
COC(=O)c1ccc(CSCc2ccc(C(=O)OC)o2)o1 | 51% | / | 5% | 0% | / | -3% | 14% | -13%
c1ccc(C(c2c[nH]c3ccccc23)c2c[nH]c3ccccc23)nc1 | 23% | 22% | 0% | 3% | -2.2% | 7% | 7% | -29%
CCOC(=O)CSc1nc(=O)n2ccccc2n1 | -5% | / | 15%[46.1 µM] | 2% | / | / | 2%[46.1 µM] | 2%
CCOC(=O)C1=C(C)NC(C)=C(C(=O)OCC)C1C(=O)OCC(=O)N1c2ccccc2CC1C (stereo not drawn) | 7%&-3% | ? | 13µM*! | -1% | -3.0% | -3% | ? | 25%&10%
